PINK1 expr mod: A Quantitative High throughput Screen to Identify Chemical Modulators of PINK1 Expression. PINK1 immunofluorescence, high-content cytometry, 24 h. Potency, µM (titrated, usually from 76.6 µM), for inactives: top-dose activation (PINK1 increase), usual class: activators. 0.2% of 410,000 active; active = well fitted activation curve with a large enough effect; inconclusive = small, poorly fitted or top-dose-only effect; inactive = flat fitted curve, though single readings scatter; cell line not stated here;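 note: potency is the fitted concentration of half-maximal effect; % of control where 0% means no effect; nearly all actives have a fitted effect of over 65% in size; a mitochondrial uncoupler was the plate control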
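Compound titrations (5 concentrations, 24 h) on a stable cell line; DMSO and CCCP controls. Endpoint: fixed-cell PINK1 immunofluorescence with mitochondrial, cell and nuclear markers, scanned by microplate cytometer.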
TRPV1 PAM: HTS Assay for Compounds that Act as Potentiators of the Vanilloid Receptor 1. potentiation, % at 8.33 µM. AID 540277, 2011. 0.02% of 320,000 active. Transient receptor potential cation channel subfamily V member 1 (Homo sapiens), Q8NER1. TRPV1-expressing cells, Fluo-8 calcium influx, capsaicin EC20 potentiation; host cell line not named in the record; control for the full effect not named in the record; active means potentiation above 80%; inconclusive means 30% to 80%; inactive means below 30%; note: 0% is about no effect
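Fluo-8 calcium influx in TRPV1-expressing cells, kinetic read (ex 480/em 520 nm). Compound added and read 3 min for agonist activity, followed by capsaicin at EC20 final and 2 min further read for enhancement.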
ClpP mod: qHTS Assay for Activators of ClpP; AID 651965, 2013; 1.9% of 340,000 active; ATP-dependent Clp protease proteolytic subunit (Bacillus subtilis (strain 168)), P80244; purified B. subtilis ClpP, FRET peptide cleavage, 20 min; Potency, µM (titrated, usually from 57.5 µM), for inactives: at the top dose activity change, negative = active; active = well fitted falling curve with a large enough effect; inconclusive = small, poorly fitted or top-dose-only effect; inactive = no such curve, though single readings can be large or run the other way; note: potency is the fitted concentration of half-maximal effect; the source files actives as falling curves though it sought activators and does not explain the sign; nearly all actives have a fitted effect of over 65% in size; many hits overshoot -100%
Target sequence (P80244 whole entry, looked up): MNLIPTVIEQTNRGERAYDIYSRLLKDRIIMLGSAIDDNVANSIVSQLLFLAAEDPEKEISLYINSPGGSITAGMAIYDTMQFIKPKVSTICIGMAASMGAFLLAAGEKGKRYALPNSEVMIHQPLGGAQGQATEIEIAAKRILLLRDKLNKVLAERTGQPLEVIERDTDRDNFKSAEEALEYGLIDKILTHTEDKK
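Purified B. subtilis ClpP, 10 microg/mL final in Tris/HCl pH8 with KCl, BSA, glycerol and Tween-20, cleaved an Abz/nitrotyrosine-quenched decapeptide. Fluorescence (ex 320, em 430) was read at 0 and 20 min at room temperature. Delta was normalized to 5.8 microM ADEP and DMSO/no-enzyme controls.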
Sfp inh: qHTS Assay for Inhibitors of Bacillus subtilis Sfp phosphopantetheinyl transferase (PPTase). 4'-phosphopantetheinyl transferase ffp (Bacillus subtilis), Q9F4F7. Biochemical Sfp PPTase activity, qHTS. Potency, µM, for inactives: max response, negative = inhibition, hits mostly inhibitors. 3.5% of 310,000 active. AID 1490, 2009; active = well fitted inhibition curve with a large enough effect; inconclusive = small, poorly fitted or top-dose-only effect, or another doubt; inactive = no such curve, though single readings can be large or run the other way;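 note: the enzyme is Sfp with the accession as filed and its product quenches rhodamine fluorescence; potency is the fitted concentration of half-maximal effect; 0% = enzyme reaction without inhibitor and -100% = no enzyme wells; top concentration of the series not given in the record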
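Step 1, compound plus 15 nM Sfp-PPTase, 15 min, room temperature. Step 2, add rhodamine-CoA (5 uM) and BHQ-2-YbbR (12.5 uM). Step 3, read 525/598 nm fluorescence at 0 and 30 min.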
TRPML1 blocker: qHTS for Inhibitors of the Human Mucolipin Transient Receptor Potential 1 (TRPML1); Mucolipin-1 (Homo sapiens), Q9GZU1; TRPML1-inducible cells, Ca2+ dye fluorescence, FDSS; hits give low values; inhibition of EC80 agonist-evoked calcium signal; activity change, negative = inhibition, % (concentration not given with the values); 0.02% of 390,000 active; in the data active means activity change below about -50%; inconclusive means about -30% to -50%; inactive means above about -30%;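 note: stimulus is agonist 54-4 at its EC80 concentration; % is set by controls: 0 for no effect and ±100 for the full control effect; compound concentration not given in the record; the text of the record puts the active cut at -80%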
Target sequence (Q9GZU1 whole entry, looked up): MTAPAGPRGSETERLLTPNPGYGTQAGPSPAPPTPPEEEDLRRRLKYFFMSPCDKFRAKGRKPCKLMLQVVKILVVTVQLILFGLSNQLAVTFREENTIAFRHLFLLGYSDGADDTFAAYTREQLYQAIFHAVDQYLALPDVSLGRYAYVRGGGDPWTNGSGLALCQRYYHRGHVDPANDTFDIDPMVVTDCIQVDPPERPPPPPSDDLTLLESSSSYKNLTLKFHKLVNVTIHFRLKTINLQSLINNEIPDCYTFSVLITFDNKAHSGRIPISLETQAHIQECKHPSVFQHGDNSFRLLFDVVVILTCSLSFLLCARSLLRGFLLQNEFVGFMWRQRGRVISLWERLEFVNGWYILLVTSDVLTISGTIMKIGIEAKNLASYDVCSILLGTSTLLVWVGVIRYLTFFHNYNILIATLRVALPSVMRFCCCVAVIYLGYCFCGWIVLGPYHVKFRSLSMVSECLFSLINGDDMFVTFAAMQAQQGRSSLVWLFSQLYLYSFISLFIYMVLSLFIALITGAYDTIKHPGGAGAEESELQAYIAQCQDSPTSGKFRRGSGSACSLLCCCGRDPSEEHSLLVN
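Tet-induced TRPML1-DL cells loaded with Ca8 no-wash calcium dye were read kinetically on FDSS. Compound addition was followed by EC80 agonist 54-4 (4 uM final); inhibition was read over 110 s.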
TRPML1 agonist: qHTS for Agonists of the Human Mucolipin Transient Receptor Potential 1 (TRPML1). TRPML1-expressing cells, Ca2+ dye fluorescence, FDSS; host cell line not named in the record; reference of the full effect not given here. 0.12% of 410,000 active. activation, % (no concentration beside the values); in the data active = activation above about 50%; inconclusive = about 30% to 50%; inactive = below about 30%; note: 0% is about no effect; the text of the record puts the active cut at 80%
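TRPML1-DL cells, Tet-induced overnight (~16 h, 37 degrees C), loaded 45-90 min at room temperature with Ca8 no-wash calcium dye plus quencher. FDSS fluorescence: 10 s baseline, compound pin-transfer, 110 s agonist read, then EC80 54-4 (4uM final) and 110 s antagonist read.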
Menin-MLL FL inh: qHTS Assay for Inhibitors Targeting the Menin-MLL Interaction in MLL Related Leukemias: Competition With Fluorescein Labeled MLL-derived Peptide; Fluorescence polarization, fluorescein-MLL peptide displacement from menin; FP activity change, % at 61.4 µM; 290,000 tested, under 10 active; inconclusive = falling polarisation curve, or a change in total fluorescence; inactive = total fluorescence flat and polarisation flat or rising; no compound was filed as active; the % refers to the polarisation; negative = inhibition;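 note: % of control where 0% means no effect; inhibitors lower the polarisation; unlabelled MLL peptide was the positive control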
Starred values were filed as active, the others as inactive; u = inconclusive; x = not tested or not shown; & = joins results of further samples; [ ] = remark or other dose. Not a hit list; any-hit rate near 4.4%.

compound	PINK1 expr mod	TRPV1 PAM	ClpP mod	Sfp inh	TRPML1 blocker	TRPML1 agonist	Menin-MLL FL inh
OCCN1CCN(c2cnc(-c3ccsc3)cn2)CC1	0.1%	x	-29%	x	x	-0.1	x
N#Cc1cccc(NC(=O)Cc2ccsc2)c1	1.8%	4	x	8%	6	1.8	-7.4
COCCN1C(=O)N(c2ccc(Cl)cc2)C(=O)C1CC(=O)Nc1cc(OC)cc(OC)c1 (configuration not stated)	4.6%	5	-7.9%	9%	0	-0.8	-0.9
Cc1ccccc1NC(=O)COC(=O)Cc1cccc(C(F)(F)F)c1	7.9%	-10	0.3%	16%	5	0.3	-0.9
COc1ccc(CCN(C)C2CCCN(C(=O)CCSC)C2)cc1OC (configuration not stated)	-0.1%	17	-0.1%	9%	-5	0.0	2.4
CCc1cccc(NC(=O)Cn2nc(C)c3sc4ccccc4c3c2=O)c1	0.4%	x	22%	x	-21	-0.1	x
CC(C)C(NC(=O)c1ccccc1NC(=O)C(C)(C)C)C(=O)N1CCOCC1 (configuration not stated)	0.7%	x	-8.9%	x	3	1.4	x
O=S(=O)(NNc1nccc(C(F)(F)F)n1)c1cccc(Cl)c1Cl	-1.3%	15	-1.3%	35µM*	18	-0.7	6.2
CCOCCc1nnc(NC(=O)C(CC)c2ccccc2)s1 (configuration not stated)	1.3%[38.3 µM]	-3	0.5%	3%	5	2.0	1.1
Cc1ccc(C2CC2c2n[nH]c(=S)n2-c2ccc(C)cc2)cc1 (configuration not stated)	13%[38.3 µM]	14	0.8%	7%	2	1.9	4.1
C=CCC1C=C(C)CC(CC=C)N1 (configuration not stated)	-1.0%	-4	x	0%	1	-0.5	-5.7
COc1ccc(C(=O)Nc2ccc3[nH]ncc3c2)cc1OC	-1.1%	-13	-1.2%	13%	-8	0.4	-2.1
COC(=O)c1ccc(S(=O)(=O)N2CCN(C(c3ccccc3)c3ccccc3)CC2)n1C	11%	1	1.2%	13%	-1	3.9	-1.0
OCC[C@@H]1C[C@H](O)[C@@H](O)[C@]2(OCc3cc(C(F)(F)F)ccc32)O1	0.9%	x	-11%	x	x	0.1	x
O=C1c2ccccc2NC(c2c(Cl)cccc2Cl)N1Cc1ccccc1 (configuration not stated)	0.3%	-4	32µM*	27%	27	2.0	4.8
CCOC(=O)CNC(=S)N(CCCN1CCCCCC1)Cc1cccs1	-0.6%	-9	x	-23%	9	-0.7	-3.1
CCN(CC)C(=O)CSc1nc2cc3c(cc2c(=O)n1Cc1ccco1)OCO3	2.6%	19	-1.2%	3%	-11	0.5	-0.7
Cc1cccc(NC(=O)C(C)Sc2nc3nc(C)cc(C)n3n2)c1 (configuration not stated)	0.6%	x	-1.8%	x	6	0.1	x
Cc1cc(C)nc(SCC(=O)NC2=NN=C(c3ccc(Br)cc3)CS2)n1	u	14	-4.2%	40µM*	8	1.8	2.9
COc1cc(NC(=O)CCc2c(C)noc2C)c(Cl)cc1C(=O)O	-1.1%	x	x	x	1	0.3	x
CCOC(=O)C[C@H]1c2cc(C(F)(F)F)ccc2S(=O)(=O)N1C(C)C	-1.2%	x	-4.5%&-0.4%	x	2	0.5&-0.9	x
COc1cccc(CNC(=O)COc2cc(=O)n(C)c3ccccc23)c1	1.3%	x	-17%	x	22	-0.9	x
CCOC(=O)CNC(=O)Nc1ccccc1C(=O)OC	-0.1%	0	28µM*	15%	11	-0.4	-2.8
Cc1cc(Br)c(NC(=O)c2ccccc2[N+](=O)[O-])cc1C	2.1%	-4	-0.3%	13%	15	1.3	0.3
CCOC(=O)c1ccccc1OCc1cc(/C=N/n2cncn2)ccc1OC	3.4%	-8	1.8%	-2%	-9	3.5	2.9
CCN1C(=O)c2ccccc2S(=O)c2ccc(C(=O)N3CCCCCC3)cc21 (configuration not stated)	-0.5%	4	1.0%	-11%	4	-0.2	3.5
Cc1cc(C)c(S(=O)(=O)c2ccc(F)cc2C)c(Cl)n1	4.7%	11	2.5%	9%	3	-0.7	13
O=C(CSc1nnnn1-c1ccccc1)c1ccco1	2.3%	-2	-0.4%	8%	-20	-0.3	-4.3
O=[N+]([O-])c1cc(/C=N/O)ccc1Oc1cccc(Cl)c1	4.1%	-11	x	-26%	5	-0.3	-1.2
O=C(c1cccc(F)c1)N1CCc2ccccc21	x	-17	0.8%	5%	-11	0.3	0.9

Four entries drawn at random from those above, as already listed:
compound	PINK1 expr mod	TRPV1 PAM	ClpP mod	Sfp inh	TRPML1 blocker	TRPML1 agonist	Menin-MLL FL inh
O=[N+]([O-])c1cc(/C=N/O)ccc1Oc1cccc(Cl)c1	4.1%	-11	x	-26%	5	-0.3	-1.2
O=C(c1cccc(F)c1)N1CCc2ccccc21	x	-17	0.8%	5%	-11	0.3	0.9
Cc1cccc(NC(=O)C(C)Sc2nc3nc(C)cc(C)n3n2)c1 (configuration not stated)	0.6%	x	-1.8%	x	6	0.1	x
COc1ccc(CCN(C)C2CCCN(C(=O)CCSC)C2)cc1OC (configuration not stated)	-0.1%	17	-0.1%	9%	-5	0.0	2.4

(next part)
compound	PINK1 expr mod	TRPV1 PAM	ClpP mod	Sfp inh	TRPML1 blocker	TRPML1 agonist	Menin-MLL FL inh
COc1cccc(-c2cc(C(=O)Nc3cnn(Cc4ccccc4C)c3)no2)c1	14%	-5	98%	-8%	-11	1.6	-3.2
CN(CC(=O)Nc1ccccc1Cl)C(=O)c1cc(=O)[nH]c2ccccc12	-2.6%	-6	x	2%	37	1.9	-0.7
COc1ccc(NC(=O)CSc2nccn2-c2ccccc2)c(OC)c1	-1.3%	-31	1.8%	23%	54	-0.9	5.5
CCOC(=O)c1c(NC(=O)C2CCCO2)sc2c1CCC2 (configuration not stated)	0.0%	-10	-11%	-12%	15	2.3	-0.2
O=C(NCc1ccncc1)c1ccc(OCc2ccccc2)cc1	-1.4%	x	0.9%	x	-2	3.8	x
Cc1ccccc1CC1(C)C(=O)Nc2ccc(S(=O)(=O)NC3CCCCC3)cc21 (configuration not stated)	-0.6%	x	-1.1%	x	x	-1.1	x
O=c1oc2ccccc2c2c1ccc1ccccc12	0.5%	x	5.1%	x	13	-1.0	x
O=C(COc1ccc(Cc2ccccc2)cc1)c1ccc(F)cc1	2.7%	-6	0.5%	-5%	-8	3.4	-0.8
c1cncc(-c2cc(NCc3cccs3)ncn2)c1	3.5%	x	x	-26%	x	x	u
CN(C)CCCN(C(=O)c1cccc(N2C(=O)CCC2=O)c1)c1nc2cc3c(cc2s1)OCO3	1.0%	-3	-0.3%	6%	x	x	-5.0
Cc1cc(CN2CCC(N3CCC(C(=O)NC4CC4)CC3)CC2)cc(C)c1O	7.1%	-6	1.3%	2%	3	-0.1	x
COc1ccc(-c2nc3ccc(C(=O)NCC(OC)OC)cc3nc2-c2ccc(OC)cc2)cc1	1.7%	-7	x	-4%	-17	0.6	1.6
COc1ccc(C(=O)NC(Nc2ccc(C)cc2)C(Cl)(Cl)Cl)cc1 (configuration not stated)	u	2	1.1%	46%[activator]	13	-1.0	6.6
CCCCNC(=O)OC(C)CNC(=O)Oc1cccc(C)c1 (configuration not stated)	-2.4%	-9	-0.4%	9%	39	-0.6	-1.0
COC(=O)c1cc(C)nc2c1c(=O)nc(SCc1c(C)cc(C)cc1C)n2C1CC1	5.3%	x	0.5%	x	78	1.7	x
Cc1ccc(C)c(CN2CCC(CNC(=O)Nc3ccc(Br)cc3F)CC2)c1	-0.8%&10%	-4	-0.7%&-4.5%	6%	-17&25	2.1&2.8	1.1
Cc1noc(C)c1-c1ccc(C(=O)NCc2cccnc2)c2occc12	7.6%	x	-27%	x	x	-0.4	x
COc1ccc(C(C)NS(=O)(=O)Cc2ccccc2)cc1 (configuration not stated)	-0.7%	4	-0.5%	2%	3	0.3	0.6
CCOc1ccc(NC(=O)c2ccc(NC(=O)Cc3n[nH]c(=O)c4ccccc34)cc2)cc1	7.0%	8	2.5%	-3%	-8	-0.5	2.5
COc1cc(NC(C)=O)c2ncccc2c1Br	-0.8%	x	u	x	-4	-0.4	x
COc1ccc(-c2noc(C(C)NC(=O)c3ccco3)n2)cc1 (configuration not stated)	-0.6%	x	-0.1%	x	20	0.7	x
CC(=O)Nc1ccc(NC(=O)C2CC(=O)N(c3cccc(Cl)c3)C2)cc1 (configuration not stated)	3.1%	8	1.0%	12%	25	1.1	-3.1
COc1ccc(-n2nc(C(=O)NCC(=O)N3CCN(c4ccccc4F)CC3)c3ccccc3c2=O)cc1	0.5%	2	x	6%	41	1.7	-3.9
CCOc1ccc2nc(N(CCCN(C)C)C(=O)c3ccc(S(=O)(=O)N4CCCC4)cc3)sc2c1	0.8%	5	-1.6%	-15%	-7	0.6	4.0

Source: PubChem
